Assay outcomes from PubChem BioAssay.
ugtP null kill: growth inhibition of ugtP-null S. aureus, primary screen, RN4220 ugtP deletion, OD600. 16 h; some inactives read as strong as hits. growth inhibition, % (no concentration beside the values). 0.54% of 330,000 active;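 active = z-score under -3 and OD600 up to 0.15 on both plates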;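 note: plate controls were untreated wells for no effect and antibiotic for full effect; wells of about 80 µL received 100 nL stock; the first replicate is given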
PrP UTR inh: inhibition of PrP 5' UTR reporter expression; AID 488862, 2010; 0.35% of 340,000 active; inhibition, % (no concentration beside the values); cell-based PrP 5' UTR mRNA reporter, plate reader;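 active = every replicate at 50% or more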;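 note: 0 = median of the neutral control wells; tested in H4 reporter cells; numbers are from one replicate; inactives centre near -14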
Mtb hypoxia inh: PubChem AID 1159583 | M. tuberculosis hypoxia-regulated fluorescent reporter, fluorescence | fluorescence inhibition, % (test concentration not listed) | 0.1% of 300,000 active;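 active = 35 to 45% if threefold the growth effect, above 45% if 1.5-fold the growth effect; inactive = the rest, general growth blockers included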;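 note: wells of about 50 µL received 100 nL stock; 0% = vehicle wells and 100% = reference inhibitor wells; whole bacteria with a GFP reporter of the hypoxia response; strong numbers were not always called active; many hits fall short of the cut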
Sa RN4220 lethal: growth inhibition of S. aureus RN4220, primary screen, OD600; inhibition, % (no concentration beside the values); AID 1259311, 2017; 0.33% of 330,000 active; 16 h;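 active = z-score of -3 or lower and OD600 up to 0.18 on both plates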;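 note: plate controls were untreated cells for no effect and reference antibiotic for full effect; stock transfer was 100 nL into about 80 µL; one replicate is shown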
Bead autofluor: counter-screen for toxin protease inhibitors: compound fluorescence. fluorescence intensity (no concentration beside the values). compound autofluorescence counterscreen, microsphere flow cytometry; hits give high values. 3.1% of 360,000 active;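 active = at least 3 SD above the mean of all compounds, about 16000 in these data; inconclusive = too few beads counted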;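 note: 100 nL of 1 mM stock went into each well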
BJeLR lethal: MLPCN primary cell-based screen for lethality selective to Ras in HRASV12 cells. BJeLR (HRASV12) viability, CellTiter-Glo ATP luminescence, 48 h; reference of the scale not given here. 0.17% of 300,000 active. AID 1554, 2009. inhibition, % (concentration not given with the values);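 active = replicate mean above 50%; inconclusive = above 50% but judged a plate artefact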;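 note: 50 nL library stock added to about 25 µL; numbers are from one replicate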
Mtb hypoxia inh growth: second read-out of Mtb hypoxia inh, no call of its own (marks repeat the call); growth inhibition, %; measured here: M. tuberculosis growth (absorbance);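 0% = vehicle and 100% = reference antibiotic; read after six days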
Starred values were filed as active, the others as inactive; ? = inconclusive; nt = no result given; & = joins results of further samples.

SMILES	ugtP null kill	PrP UTR inh	Mtb hypoxia inh	Mtb hypoxia inh growth	Sa RN4220 lethal	Bead autofluor	BJeLR lethal
COc1ccc(C=NNc2nc(=O)[nH]nc2C)cc1OC	8	nt	18	-4	3.2	nt	nt
COc1ccc2nc(NC(=O)C(NS(=O)(=O)c3cccs3)C(C)C)sc2c1 (stereo not given)	-6	-21	0	9	3.8	21430*	4
COc1ccccc1/C=C/CN1CCC(Oc2ccc(C(=O)N3CCCC3)cc2)CC1	-1	1	-4	3	-3.9	6772	-3
CCOC(=O)CSC1=C(C#N)C(c2ccc(F)cc2)C(C(C)=O)=C(C)N1 (stereo not given)	2	-9	1	-3	1.4	12878	6
Brc1ccc2c(c1)C(c1cccs1)=NNC(c1cccnc1)=N2	1	-7	3	4	-0.7	9321	-3
COc1ccc(S(=O)(=O)N2CCN(C(=O)c3cccs3)CC2)cc1	6	2	nt	nt	2.1	4109	-7
Cc1ccc(CCC(=O)Nc2ccc(Cl)cc2)o1	2	-23	2	19	2.9	3566	-6
CCn1ccnc1CN(C)C(=O)CCc1nnc(CCCc2ccccc2)o1	4	-12	10	0	3.5	2018	0
O=C(NC(Cc1ccccc1)C(=O)Oc1ccc2c(C(F)(F)F)cc(=O)oc2c1)OCc1ccccc1 (stereo not given)	nt	-29	nt	nt	nt	2539	-4
COc1cc(C(=O)NCCC(=O)NCCN2CCCCCC2)cc(OC)c1OC	7	-37	5	12	1.5	12290	9
COc1ccc(C(C(O)C(=O)c2c[nH]c3ccccc23)N2CCN(c3ccc(OC)cc3)CC2)cc1 (stereo not given)	-3	-20	15	24	3.1	3689	-15
O=C(COc1ccccc1Cc1ccccc1)NCCCN1CCOCC1	7	-8	14	6	3.3	4330	-2
COc1ccccc1OCCCCOc1ccccc1C(C)=O	14	5	11	14	10	2517	7
CN1CCN(Cc2c(O)ccc3cc(-c4ccccn4)c(=O)oc23)CC1	1	-27	4	5	0.1	3391	10
CC(=O)N1c2ccccc2C(=O)C1N(C)c1ccc(C)cc1 (stereo not given)	4	-29	-4	-8	3.5	3138	-7
O=C(NN=Cc1c[nH]c2c1ccc1ccccc12)c1ccc([N+](=O)[O-])cc1	9	nt	-9	2	5.2	nt	nt
CCN1C(=O)c2ccccc2S(=O)c2ccc(C(=O)NCCN(CC(C)C)CC(C)C)cc21 (stereo not given)	17	-29	-1	8	-2.6	4113	-4
Cc1ccc(N(CC#N)C(=O)CS(=O)(=O)c2cccc([N+](=O)[O-])c2)cc1	-4	-12	6	6	0.5	3848	9
Cc1cc(C)n(C(=O)Cc2cn3ccsc3n2)n1	-3	-3	5	8	-4.4	3335	-2
CC1CC(=O)C2=C(C1)Nc1nc3ccccc3n1C2c1cccnc1 (stereo not given)	6	-2	0	-1	9.6	3102	-19
CCCC(=O)Nc1nc2ccc(NC(=O)c3ccccc3F)cc2s1	4	46	1	-2	-5.2	3191	18
C=CCSC1=N/C(=C\c2ccsc2)C(=O)S1	nt	-16	nt	nt	nt	3417	-5
Fc1cccc(NC(=S)Nc2cccnc2)c1	4	0	9	5	-3.1	4487	7
O=C1C(Cc2ccccc2)NCCCCC(c2ccc(Cl)cc2)N1Cc1ccccc1 (stereo not given)	12&-22	nt	12&12	4&13	6.8&-0.1	nt	nt
Cc1[nH]c2ccccc2c1C(=O)C(=O)N1CCN(C(=O)c2ccco2)CC1	1	-14	4	-5	0.8	4980	-5
O=C(CSc1nnc(COc2ccc(Cl)cc2)o1)N1c2ccccc2CCc2ccccc21	-24	-18	11	6	-2.8	2297	7
O=C1c2cccc3cccc(c23)C(=O)N1OS(=O)(=O)c1ccc(Br)cc1	nt	-25	nt	nt	nt	2574	-7
COc1ccccc1C/C(N)=N/O	2	-9	11	4	5.6	2570	12
O=C(Cc1ccc(O)cc1)NCCNC(=S)NCc1ccccc1	1	-25	-4	3	2.8	5336	-3
Cc1cc(CNC(=O)COc2ccccc2F)c2ccccc2n1	3	-33	9	12	0.8	2545	19

A second format for part of the listing above:
> Cc1cc(C)n(C(=O)Cc2cn3ccsc3n2)n1
  ugtP null kill = -3 | PrP UTR inh = -3 | Mtb hypoxia inh = 5 | Mtb hypoxia inh growth = 8 | Sa RN4220 lethal = -4.4 | Bead autofluor = 3335 | BJeLR lethal = -2
> CC1CC(=O)C2=C(C1)Nc1nc3ccccc3n1C2c1cccnc1 (stereo not given)
  ugtP null kill = 6 | PrP UTR inh = -2 | Mtb hypoxia inh = 0 | Mtb hypoxia inh growth = -1 | Sa RN4220 lethal = 9.6 | Bead autofluor = 3102 | BJeLR lethal = -19

The results go on:
SMILES	ugtP null kill	PrP UTR inh	Mtb hypoxia inh	Mtb hypoxia inh growth	Sa RN4220 lethal	Bead autofluor	BJeLR lethal
Cc1ccc(C(=O)NCC(=O)OCC(=O)N(CC(C)C)c2c(N)n(Cc3ccccc3)c(=O)[nH]c2=O)cc1C	9	-8	1	-2	-0.3	4791	2
COc1ccc2c(c1)c(=O)oc1cc(O)ccc12	6	-8	nt	nt	4.8	5429	-1
CCN1CCN(c2cc3c(cc2F)c(=O)c(S(=O)(=O)c2ccccc2)cn3C)CC1	3	-11	4	10	1.0	5341	4
O=C(/C=C/c1ccc(Cl)c([N+](=O)[O-])c1)c1cccnc1	6	-31	23	20	9.2	5342	29
COCCn1c(=O)[nH]c2cc(C(=O)NC3CCCCCC3)ccc2c1=O	-7	4	-2	-1	0.4	4365	2
CN1CCN(NC(=O)c2ccc(S(=O)(=O)N3CC4(C)CC3CC(C)(C)C4)cc2)CC1 (stereo not given)	-1	-8	5	2	2.9	3598	-17
O=C(CN1C(=O)NC2(CCCC2)C1=O)N1CCN(S(=O)(=O)c2ccccc2[N+](=O)[O-])CC1	6	-11	9	-1	3.0	4312	6
O=C(CN1CCN(C(=O)C2CCCO2)CC1)Nc1ccc(Cl)cc1 (stereo not given)	1	-15	-7	0	-0.1	5713	2
COc1cccc(C2C3=C(N=c4s/c(=C\c5ccc(O)cc5)c(=O)n42)c2ccccc2CC3)c1OC (stereo not given)	nt	-11	nt	nt	nt	2018	10
COc1ccccc1C(=O)Nc1nnc(S(=O)(=O)N2CCOCC2)s1	1	-13	-13	-1	1.7	4806	1
NC1=NC2(CCCCC2)n2c(nc3ccccc32)N1	-1	-42	nt	nt	0.2	4520	6
COc1ccccc1NC(=O)c1oc2ccccc2c1NC(=O)c1ccco1	-26	-54	-1	3	-2.9	11293	-11
O=C(CSc1nc2ccc([N+](=O)[O-])cc2[nH]1)NC1CCCCC1	-10	-13	6	9	1.2	20507*	5
O=C(Cc1ccc(Cl)cc1)Nc1ccc(N2CCCC2)cc1	1	-21	nt	nt	-0.8	5072	-2
CCN1C(=O)c2cccc3c(S(=O)(=O)Nc4ccncc4)ccc1c23	3	-34	8	5	1.0	6848	0
Cc1ccc(-c2nc(=S)c3c(n2Cc2ccco2)CCCC3)cc1	54	-23	4	0	-5.8	3147	nt
N#C/C(=N\Nc1ccccc1)C(=N)N1CCOCC1	nt	-35	nt	nt	nt	1982	2
Cc1cccc(Nc2nc(N3CCN(C)CC3)nc(N)c2[N+](=O)[O-])c1	2	2	11	-7	9.2	2206	30
Cc1ccc(NC(=O)COC(=O)c2ccc3c(c2)OCCO3)cc1S(=O)(=O)N1CCOCC1	4	-29	1	5	1.4	2559	2
CC(=O)Nc1cccc(-n2nnc(SCC(=O)Nc3ccc(F)c(Cl)c3)n2)c1	nt	-26	nt	nt	nt	16932*	9
CCN1CCC(O)(C(C(=O)OC)c2ccccc2)CC1 (stereo not given)	2	-29	7	9	0.8	3284	nt
CCOc1cc(/C=C2\N=C(C)OC2=O)cc(Cl)c1OCC(=O)OC	2	-22	2	8	4.2	nt	8
CCN(CC)S(=O)(=O)c1ccc(NC(=O)COC(=O)c2ccc(-n3nc(C)cc3C)cc2)cc1	-3	-3	10	8	5.3	11687	nt
C#CCOCCOCCOCCNc1nc(N2CCN(C(=O)[C@H]([C@@H](C)O)n3cc(CCCCN)nn3)CC2)nc(N2CCN(C(=O)[C@H](Cc3ccc(O)cc3)n3cc(CCO)nn3)CC2)n1	nt	-21	nt	nt	nt	4297	-11
Cc1cc(Br)ccc1SCC(=O)OCC(=O)N1CCN(C(=O)c2ccco2)CC1	-1	-11	nt	nt	-20	3227	-3
COc1ccc(CC(=O)NCc2n[nH]c(=S)n2C)cc1	1	-17	5	9	7.3	3781	-4
O=C(Nn1cnnc1)c1ccc(Br)s1	4	-2	5	0	2.8	2150	2
O=C(O)c1ccc(C(=O)C(=O)c2ccccc2)cc1	8	-15	8	7	4.5	3438	4
CSc1ncccc1C(=O)OCC(=O)Nc1ccc(Cl)cn1	3	-7	-12	3	4.8	6141	nt
COc1cccc(CC(=O)Nc2cc(S(=O)(=O)N3CCCCC3)ccc2C)c1	9	-22	16	8	6.3	3790	nt

Profiles as entered above:
Shown for Cc1cc(Br)ccc1SCC(=O)OCC(=O)N1CCN(C(=O)c2ccco2)CC1 → ugtP null kill = -1; PrP UTR inh = -11; Mtb hypoxia inh = nt; Mtb hypoxia inh growth = nt; Sa RN4220 lethal = -20; Bead autofluor = 3227; BJeLR lethal = -3
Shown for O=C(COc1ccccc1Cc1ccccc1)NCCCN1CCOCC1 → ugtP null kill = 7; PrP UTR inh = -8; Mtb hypoxia inh = 14; Mtb hypoxia inh growth = 6; Sa RN4220 lethal = 3.3; Bead autofluor = 4330; BJeLR lethal = -2

Continued:
SMILES	ugtP null kill	PrP UTR inh	Mtb hypoxia inh	Mtb hypoxia inh growth	Sa RN4220 lethal	Bead autofluor	BJeLR lethal
COc1ccc(OC)c(C(C)NC(=O)C(C)Cc2ccccc2)c1 (stereo not given)	1	5	-3	-1	1.8	3687	1
Cc1ccnc(NC(=O)c2ccc(NS(=O)(=O)/C=C/c3ccccc3)cc2)c1	6	-18	2	1	-1.6	5320	-4
CN(CC(=O)NCCN1CCCCCC1)S(=O)(=O)c1cccc2nsnc12	11	-4	15	1	3.9	3152	-10
COc1cccc(C(=O)Nc2ccc3nc(N4CCOCC4)cc(C)c3c2)c1	2	-16	-3	12	11	4310	-2
CC1CCN(C2=NC(=O)/C(=C/c3ccccc3F)S2)CC1	7	41	13	6	1.3	4022	-19
COCCCN1C(=O)C(=O)/C(=C(/O)c2ccc(OC)cc2C)C1c1cccnc1 (stereo not given)	-2	-24	7	4	4.0	7092	-6
Cc1ccc(C(=O)N/C(=C\c2ccc(-c3cccc([N+](=O)[O-])c3)o2)C(=O)NCCCN2CCOCC2)cc1	-8	-20	1	-2	-5.2	6222	7
O=C(NCc1cccnc1)C(=O)NCC(c1ccco1)N1CCOCC1 (stereo not given)	-5	-4	12	7	1.2	5155	7
COCCOC(=O)C1=C(N)Oc2c(oc(CO)cc2=O)C1c1ccccc1F (stereo not given)	8	-3	4	2	3.8	8552	-1
Cc1oc(/N=C/c2ccc(Cl)cc2)c(C#N)c1C	nt	-17	nt	nt	nt	11264	-2
CS(=O)(=O)N1CCc2cc(S(=O)(=O)Nc3ccc4oc5c(c4c3)CCCC5)ccc21	2	-22	7	-2	-11	9972	-2
S=C(NCc1cccnc1)Nc1ccc(Cl)cc1Cl	10	-85	3	4	3.3	3078	5
COc1cccc(NC(=O)CN2CCN(c3ccccc3F)CC2)c1	8	-23	nt	nt	-2.1	2650	0
O=C(CSc1nnnn1C1CCCC1)Nc1ccc2c(c1)OCO2	-5	-7	-4	-8	0.2	12197	-12
COc1ccccc1N1CCN(C(=O)c2ccc(NC3=NC4CS(=O)(=O)CC4S3)cc2)CC1 (stereo not given)	-5	-3	-6	1	-2.7	4504	-8
CC(C)N(Cc1cnn(C)c1)C(=O)c1ccc(OC2CCN(Cc3ccccn3)CC2)cc1	4	-18	4	6	4.8	5163	-7
O=C(CNC(=O)c1ccccc1F)N/N=C/c1cn[nH]c1-c1ccccc1	nt	-13	nt	nt	nt	2155	2
CCCSc1nc(SCC(=O)NCc2ccccc2)c2c3c(sc2n1)COC(C)(CC)C3 (stereo not given)	9	-4	5	3	7.0	?	-3
CCOc1cc(C(=O)OCc2cc(=O)n3c(C)csc3n2)ccc1OC	5	-4	9	5	7.0	5026	nt
COc1ccc(CC(=O)Nc2c3c(nn2-c2ccccc2C)CS(=O)C3)cc1 (stereo not given)	9	-50	5	1	-0.1	20787*	-3
CCCC(C)C1C(C#N)=C(N)Oc2c1c(=O)oc1ccccc21 (stereo not given)	-24	4	nt	nt	2.8	4628	15
COc1ccccc1NS(=O)(=O)c1ccc2oc(SCc3ccc(F)cc3)nc2c1	-13	-32	6	0	-7.0	2103	4
Cc1ccc(CCNC(=O)C2CCC(CNc3c(N4CCCC4)c(=O)c3=O)CC2)cc1 (stereo not given)	8	-35	1	8	4.9	3742	5
